E coli growth = E. coli growth inhibition, primary screen, OD600; OD600 absorbance (concentration not given with the values); 0.21% of 330,000 active; Escherichia coli growth, 23 h; hits give low values; AID 1053175, 2014;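 active = OD600 absorbance below the run mean of sample wells minus 3.6 SD, in any replicate, cut at about 0.56 in these data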;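 note: stock transfer was 300 nL into about 60 µL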
UCH37 inh = inhibitors of human UCH37 deubiquitinase, primary screen, biochemical, Ub-AMC cleavage, fluorescence | Ubiquitin carboxyl-terminal hydrolase isozyme L5 (Homo sapiens), Q9Y5K5 | purified proteasome/UCH37 | inhibition, % (concentration not given with the values) | 0.33% of 330,000 active;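 active = mean of two replicates above 20%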;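 note: 0% = compound-free wells with enzyme and 100% = wells lacking proteasome; stock transfer was 100 nL into about 20 µL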
Target sequence (Q9Y5K5 whole entry, looked up): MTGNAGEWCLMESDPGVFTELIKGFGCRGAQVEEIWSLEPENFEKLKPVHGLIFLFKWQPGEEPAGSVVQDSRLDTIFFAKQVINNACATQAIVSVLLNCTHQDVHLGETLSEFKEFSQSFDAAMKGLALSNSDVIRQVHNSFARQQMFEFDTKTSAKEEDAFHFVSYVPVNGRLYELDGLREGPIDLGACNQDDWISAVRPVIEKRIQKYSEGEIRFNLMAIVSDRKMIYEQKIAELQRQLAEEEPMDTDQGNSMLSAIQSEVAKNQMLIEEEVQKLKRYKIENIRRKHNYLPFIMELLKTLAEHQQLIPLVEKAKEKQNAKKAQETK
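Test system – human UCH37 enzyme supplied as purified proteasome complex · Incubation – 30 min preincubation with enzyme, 25 min cleavage at room temperature · Detection – AMC fluorescence from Ub-AMC cleavage, excitation 355 nm, emission 460 nm · Benchmarks – no-proteasome wells (full inhibition) and compound-free wells (no inhibition)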
* marks the source's active call; other numbers are inactive results. Only part of the results is shown. The share of hits here may be higher or lower than overall.

SMILES	E coli growth	UCH37 inh
CCOc1ccc(C2C(C(=O)c3ccco3)=C(O)C(=O)N2CCN(C)C)cc1 (stereo not drawn)	0.7	2.1
CNC(=S)NN=Cc1cc(Br)cc(Br)c1O	0.64	-68
COC(=O)c1cccc(-c2ccc(C=NN3C(=O)C4C5C=CC(C6CC56)C4C3=O)o2)c1 (stereo not drawn)	0.69	0.2
O=C(CC=NOCc1ccc([N+](=O)[O-])cc1)Nc1ccc(F)cc1F	0.69	0.6
CCOc1ccc(Oc2c(C=NNC(=O)COc3ccccc3OC)c(C)nn2-c2ccccc2)cc1	0.69	5.1
O=C(CN1CCN(S(=O)(=O)c2ccc(Br)cc2)CC1)NN=Cc1ccco1	0.69	5.2
Cc1snc(S(=O)(=O)C(C#N)=NNc2ccc(C(F)(F)F)cc2)c1C#N	0.71	4.6
CCNC(=S)NN=C(C)c1ccc(Cl)s1	0.68	7.4
Cc1cc([N+](=O)[O-])c(C)cc1-c1ccc(C=Nn2cnnc2)o1	0.71	12
CC(=NNc1nc(N)cc(Cl)n1)c1cccc(N)c1	0.68	4.9
CN(C)S(=O)(=O)c1ccc(-c2csc(NN=Cc3ccc(O)cc3)n2)cc1	0.68	-18
O=C(O)CCC(=NNC(=O)c1ccccc1)c1cccs1	0.71	3.9
Cc1ccc(C2=[N+]([O-])C3(CCCCCC3=NNC(N)=O)N(O)C2(C)C)o1 (stereo not drawn)	0.74	0.8
COc1ccc(O)c(C=NNC(=S)Nc2cccnc2)c1	0.67	-117
COc1ccccc1C(=O)NCC(=O)NN=Cc1cccc(Cl)c1	0.68	0.5
N#CC(=NNc1ccccc1F)C(=N)N1CCCCC1	0.64	12
CCN(CC)c1ccc(C=c2sc3nc4ccccc4n3c2=O)c(O)c1	0.72	-87
CSC(=NS(=O)(=O)c1ccccc1)c1ccccc1	0.72	4.5
O=C(O)c1ccccc1C=NNC(=S)NC1CCCCC1	0.64	2.7
O=C(NN=Cc1ccccc1O)C1(O)c2ccccc2-c2ccccc21	0.69	-28

Of the compounds above, these have a cyano group.
SMILES	E coli growth	UCH37 inh
Cc1snc(S(=O)(=O)C(C#N)=NNc2ccc(C(F)(F)F)cc2)c1C#N	0.71	4.6
N#CC(=NNc1ccccc1F)C(=N)N1CCCCC1	0.64	12

The results go on:
SMILES	E coli growth	UCH37 inh
Cc1ccsc1C=NNc1nc(Cl)c(Cl)cc1Cl	0.79	-11
CN1CCN(Cc2c(C(=O)NN=Cc3cccc(Br)c3)nnn2-c2nonc2N)CC1	0.67	2.9
CC(=NNC(=O)NC1CCCCC1)c1ccc(OC(F)F)cc1OC(F)F	0.65	0.2
O=C(O)c1ccccc1N(Cc1ccccc1)C(=O)CON=Cc1ccccc1	0.73	1.7
O=c1c2c(-c3ccccc3)csc2ncn1N=Cc1cccc([N+](=O)[O-])c1O	0.64	9.3
CC(/C=C/c1ccco1)=NNC(=O)COc1ccc(C)c(C)c1	0.67	6.0
CC(=NNC(=O)c1nn(C)c(C)c1Br)c1cccc(NC(=O)c2ccc(F)cc2)c1	0.63	-0.8
COc1cc(C=NNC(=O)CCc2n[nH]c(=O)[nH]c2=O)ccc1O	0.7	4.2
NC(=O)NN=Cc1ccc([N+](=O)[O-])o1	0.064*	9.0
ON=C(CN(O)/C=C1/C=CC=N1)c1cccs1	0.67	4.0
Cc1nnc(NN=Cc2cc([N+](=O)[O-])c(N3CCC(C)CC3)cc2N2CCC(C)CC2)n1N	0.64	6.9
Cc1ccnn1CC(=O)NN=Cc1c[nH]c2ccccc12	0.7	6.0
CC(C)(C)c1ccc(C=NNC(=O)C2CCCC2)cc1	0.72	-2.3
Cc1cccc(-n2c(C)cc(C=NNC(=O)c3ccco3)c2C)c1	0.65	2.7
O=C1NCCCC1C(=O)NN=Cc1cc([N+](=O)[O-])ccc1O (stereo not drawn)	0.62	16
CON=CCC(=O)Nc1ccc(Cl)c(Cl)c1	0.64	-3.7
CN(C)C=Nc1nc(-c2ccc3c(c2)OCO3)cs1	0.72	26*
Clc1ccc(C=Nc2c(-c3ccc(Cl)cc3)nc3n2CCS3)cc1	0.79	6.8
O=C(COc1ccc(C=NNS(=O)(=O)c2ccccc2)cc1)N1CCOCC1	0.72	-3.4
CCOc1cc(C=NNC(=O)c2nn(C)cc2Br)ccc1OCc1ccccc1	0.69	1.9
CCOc1cc(C=NNc2cc(C)nc3ccc(C)cc23)ccc1O	0.66	-25
COc1cc(C=Nn2cc(-c3ccccc3)[nH]c2=S)cc(OC)c1O	0.67	4.5
CCOC(=O)NN=C1CCc2ccccc21	0.7	0.7
CCOc1ccccc1C=Nn1c(C2CCCCC2)n[nH]c1=S	0.67	2.6
CCn1c(C)nc2cc(C(=O)NN=Cc3ccc(O)c(O)c3O)ccc21	0.69	17
COc1cc(C=NNC(=O)c2cccc([N+](=O)[O-])c2)cc(OC)c1O	0.74	9.3
CCNC(=S)NN=Cc1sccc1C	0.65	7.9
Clc1nc2ccccc2cc1C=NNc1nc2ccccc2[nH]1	0.69	3.2
CCC(=NNc1ccccc1[N+](=O)[O-])c1ccc(O)cc1	0.65	3.8
Clc1ccc(Sc2ccc(C=Nn3cnnc3)o2)cc1	0.67	0.3
CC(CC(=O)Nc1cccc(C(F)(F)F)c1)=NNC(=O)c1cnccn1	0.68	1.1
O=C(COc1ccccc1)NN=Cc1ccc([N+](=O)[O-])o1	0.55	11
O=C(O)CCC(=NNC(=O)CNC(=O)c1ccc2c(c1)OCCO2)c1ccccc1	0.68	-2.2
COc1ccc(C=NNc2nc(N3CCCC3)nc(N3CCCC3)n2)c(OC)c1OC	0.67	5.8
O=C(NN=Cc1ccccn1)c1ccc(Br)cc1	0.62	-0.8
FC(F)(F)c1ccccc1C=NNc1ccccn1	0.66	5.3
COc1ccc(C=NNC(=O)CC(=O)NCc2cccnc2)c(OC)c1	0.72	3.5
CCc1ccc(C=NNC(=O)c2nnn(-c3nonc3N)c2C(C)C)cc1	0.69	3.9
COc1cc(C(=O)NN=Cc2ccc(OC(=O)c3ccccc3Cl)cc2)ccc1O	0.63	2.8
O=C(NN=Cc1c(F)c(F)c(F)c(F)c1F)c1ccc(-c2ccccc2)cc1	0.69	1.7

Filtered by structure, the entries above containing bromine
SMILES	E coli growth	UCH37 inh
CNC(=S)NN=Cc1cc(Br)cc(Br)c1O	0.64	-68
O=C(CN1CCN(S(=O)(=O)c2ccc(Br)cc2)CC1)NN=Cc1ccco1	0.69	5.2
CN1CCN(Cc2c(C(=O)NN=Cc3cccc(Br)c3)nnn2-c2nonc2N)CC1	0.67	2.9
CC(=NNC(=O)c1nn(C)c(C)c1Br)c1cccc(NC(=O)c2ccc(F)cc2)c1	0.63	-0.8
CCOc1cc(C=NNC(=O)c2nn(C)cc2Br)ccc1OCc1ccccc1	0.69	1.9
O=C(NN=Cc1ccccn1)c1ccc(Br)cc1	0.62	-0.8

Compounds above containing an NH in an aromatic ring (five):
SMILES	E coli growth	UCH37 inh
COc1cc(C=NNC(=O)CCc2n[nH]c(=O)[nH]c2=O)ccc1O	0.7	4.2
Cc1ccnn1CC(=O)NN=Cc1c[nH]c2ccccc12	0.7	6.0
COc1cc(C=Nn2cc(-c3ccccc3)[nH]c2=S)cc(OC)c1O	0.67	4.5
CCOc1ccccc1C=Nn1c(C2CCCCC2)n[nH]c1=S	0.67	2.6
Clc1nc2ccccc2cc1C=NNc1nc2ccccc2[nH]1	0.69	3.2

Additional records:
SMILES	E coli growth	UCH37 inh
COc1ccc(NS(=O)(=O)c2ccc(NN=C(C)c3ccncc3)c([N+](=O)[O-])c2)cc1	0.69	10
CC(=NNC(=O)C1CC1)c1ccc(C(C)(C)C)cc1	0.68	0.7
CC(C)=CCC/C(C)=C/C=NNC(=O)c1cccc([N+](=O)[O-])c1	0.74	2.6
Cc1ccsc1C=NNC(=O)C1CC(=O)N(c2ccc(F)cc2)C1 (stereo not drawn)	0.63	3.0
COc1ccc(Cc2nc3ccccc3n2CC(=O)NN=Cc2ccc(C)cc2O)cc1OC	0.67	-2.0
COc1cc(C=NNC(=O)Cc2nnc(N)s2)cc(OC)c1OC	0.63	3.5
O=C(CSc1nc2ccccc2s1)NN=Cc1ccco1	0.69	2.3
CC(C)N(C(=O)C[n+]1ccc(C=NO)cc1)C(C)C	0.7	3.5
N#CC(=C(O)CSc1nnc(Cc2cccs2)n1C1CCCCC1)c1nc2ccccc2[nH]1	0.69	-7.1
CCCc1c(C(=O)NN=Cc2ccco2)nnn1-c1nonc1N	0.62	-4.8
Oc1ccc(C=NNc2cc(N3CCCC3)nc(N3CCCC3)n2)cc1	0.73	-37
Cc1ccc2c(c1)c1c(n2CC(O)Cn2c(C)nc3ccccc32)C(=NO)CCC1 (stereo not drawn)	0.69	-2.0
CCC(=NNC(=O)Nc1ccccc1)c1ccccc1	0.67	1.3
CCc1ccc(S(=O)(=O)N=C2C=C(Sc3ncn[nH]3)C(=O)c3ccccc32)cc1	0.68	80*
CC(=NNC(=O)c1ccc(NS(=O)(=O)c2cccs2)cc1)c1ccc2c(c1)OCO2	0.68	7.5
Cc1ccc2cc(C=NNC(=O)[C@H]3C[C@@H]3c3ccccc3)c(Cl)nc2c1	0.71	-47
C=CCON=C(C)c1c(O)c(CC)c(-c2ccccc2)n(-c2ccccc2)c1=O	0.72	-0.6
COc1ccc(C=NNC(=O)COc2ccc(C(C)(C)C)cc2)cc1Cn1nc(C)cc1C	0.75	3.5
Cc1ccccc1-c1n[nH]c(=S)n1N=Cc1c(C)nn(-c2ccccc2)c1C	0.7	3.4
Oc1ccc2ccccc2c1C=Nn1cnnc1	0.71	8.4
COc1ccc(-c2cc(C(=O)O)c3c(C)nn(-c4ccccn4)c3n2)cc1	0.76	-446
COc1ccc(CC(=O)NCC(=O)NN=Cc2ccco2)cc1	0.7	4.8
COc1cc(C=NNC(=O)/C(=C\c2ccc([N+](=O)[O-])cc2)NC(=O)c2ccccc2)cc(OC)c1O	0.69	13
COC(=O)c1ccc(C=NNC(=O)C(=O)NCc2ccccc2)cc1	0.72	5.4
COc1ccc(C=NNc2cc(C)nc(N3CCOCC3)n2)cc1	0.72	6.9
Cc1ccccc1-n1c(SCC(O)=C(C#N)c2nc3ccccc3[nH]2)nnc1-c1ccncc1	0.73	-7.9
COc1ccccc1/C=C/C=NNC(=O)c1ccncc1	0.67	12
COc1ccc(C(=O)C(C=NO)=NNc2ccc(F)cc2)cc1	0.69	6.9
Cc1cc(C)n(CCC(=O)NN=Cc2ccc(Cl)c([N+](=O)[O-])c2)n1	0.64	-1.8
COc1ccc(C=NOCC(=O)Nc2ccc3c(c2)OCO3)c(OC)c1	0.67	3.7
NC(=NOC(=O)c1cccc(Br)c1)c1ccc([N+](=O)[O-])cc1	0.69	1.1
COC(=O)c1[nH]c2cccc(OC)c2c1NC(=O)CCN1CCN(c2cccc(Cl)c2)CC1	0.74	-12
S=c1[nH]nc(C2CCCCC2)n1N=Cc1ccccc1Cl	0.72	6.1
CC(C)(NO)C(=NO)c1cccs1	0.76	0.5
Cc1[nH]n(-c2cccc(Cl)c2)c(=O)c1C=Nn1c(C)nc2ccccc2c1=O	0.65	-0.3
O=C(NN=Cc1cc(Br)cc(Br)c1O)c1cccc(S(=O)(=O)N2CCOCC2)c1	0.67	-1.9
Cc1ccc[n+](-c2[nH]c(=O)sc2C=NNC(=O)c2ccccc2[O-])c1	0.68	12
CC(=O)Nc1ccc(C(C)=NNc2nc(Nc3cccc4ccccc34)nc(N3CCOCC3)n2)cc1	0.72	6.0
COc1cccc(C=NNC(=S)Nc2cccc(C(=O)O)c2)c1	0.69	9.5
ON=C1C2C3C(Br)C4C5CC(C1C53)C24 (stereo not drawn)	0.72	1.3
O=[N+]([O-])c1ccc(NN=Cc2cn(-c3ccccc3)nc2-c2ccccc2)cc1	0.75	5.4
Cc1cc(NN=Cc2ccc(O)c(C)c2O)nc(-c2ccccc2O)n1	0.71	-2.4
C(=NNc1nc2ccccc2s1)c1ccc2c(c1)OCO2	0.69	-8.6
CC(Cc1ccccc1)=NNC(=O)CNC(=O)COc1ccccc1	0.6	1.8
Cc1nc2c(cnn2-c2ccc(Cl)cc2)c(=O)n1-c1ccc(N2CCC(C)CC2)cc1	0.7	0.5
Oc1c(Br)cc(Br)cc1C=Nn1c(-c2ccccc2)n[nH]c1=S	0.64	0.5
O=C(CON=Cc1cccc([N+](=O)[O-])c1)NC1CCCCCC1	0.68	-1.0
CCOC(=O)C=c1sc(=C(C#N)C(=O)NC)n(-c2ccccc2)c1=O	0.7	2.9
C=CCOc1ccc(C=NNC(N)=S)cc1	0.69	3.1
Cc1onc(-c2ccccc2)c1C(=O)NN=C/C(Br)=C/c1ccccc1	0.69	-1.2
Cc1nc2ccccc2cc1C(=O)NN=Cc1ccc([N+](=O)[O-])cc1	0.67	11
Cc1cc(-c2n[nH]c(=S)n2N=Cc2ccco2)n[nH]1	0.63	4.7
O=C(Cc1ccccc1)NN=Cc1cc(Br)cc(Cl)c1O	0.7	-13
O=C(NN=Cc1cccnc1)c1cccc(NC(=O)c2cccc(Br)c2)c1	0.72	4.1
CCOC(=O)c1c(C)[nH]c(C(=O)NN=Cc2ccc(Br)cc2)c1C	0.72	-5.0
O=c1[nH]c(NN=Cc2ccc(O)cc2)nc2ccccc12	0.7	0.2
CSc1nncc(C(C)=NNc2cccc(C)c2)n1	0.68	3.8
O=C(COc1ccc2ccccc2c1)NCC(=O)NN=Cc1ccco1	0.73	2.5
Cc1nn(-c2ccccc2)c(Cl)c1C=NNC(=O)CNc1n[nH]c(=O)[nH]c1=O	0.73	-0.7
CC1(C(=O)NN=Cc2cc3c(cc2Br)OCO3)CC1(Br)Br (stereo not drawn)	0.69	2.6
COc1ccc(C=NNC(=O)c2sccc2C)c2ccccc12	0.7	-47

Screening results: PubChem, ICCB-Longwood Screening Facility, Harvard Medical School
